TRPML1 blocker = human mucolipin-1 channel inhibition; activity change, negative = inhibition, % (no concentration beside the values); 390,000 tested, 0.02% active; TRPML1-inducible cells, Ca2+ dye fluorescence, FDSS; active compounds read low; inhibition of EC80 agonist-evoked calcium signal; Q9GZU1; in the data active means activity change below about -50%; inconclusive means about -30% to -50%; inactive means above about -30%;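 note: stimulus is agonist 54-4 at its EC80 concentration; % is set by controls: 0 for no effect and ±100 for the full control effect; compound concentration not given in the record; the text of the record puts the active cut at -80%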
Target sequence (Q9GZU1 whole entry, looked up): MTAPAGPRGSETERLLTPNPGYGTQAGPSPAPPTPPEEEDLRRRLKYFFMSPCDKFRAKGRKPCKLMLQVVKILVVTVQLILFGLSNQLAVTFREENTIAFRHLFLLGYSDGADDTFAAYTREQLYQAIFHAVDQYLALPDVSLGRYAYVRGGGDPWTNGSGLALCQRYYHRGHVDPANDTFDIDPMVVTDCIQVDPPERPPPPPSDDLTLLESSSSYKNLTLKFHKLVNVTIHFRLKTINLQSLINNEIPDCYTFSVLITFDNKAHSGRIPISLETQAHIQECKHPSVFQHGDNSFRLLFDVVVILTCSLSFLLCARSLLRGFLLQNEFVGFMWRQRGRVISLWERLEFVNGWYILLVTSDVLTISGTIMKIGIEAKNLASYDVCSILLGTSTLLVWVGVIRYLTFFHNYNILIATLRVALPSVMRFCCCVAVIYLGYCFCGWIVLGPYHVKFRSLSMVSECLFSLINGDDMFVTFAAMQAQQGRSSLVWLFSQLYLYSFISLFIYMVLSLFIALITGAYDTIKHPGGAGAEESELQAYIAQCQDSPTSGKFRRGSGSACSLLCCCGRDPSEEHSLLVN
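TRPML1-DL cells, Tet-induced overnight (~16 h, 37 °C) at 1,500 cells/well, were loaded with Ca8 no-wash dye plus quencher for 45-90 min at room temperature. Compounds were pinned during FDSS kinetic reading; agonist 54-4 at EC80 (4 uM final) then added.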
PINK1 expr mod = PINK1 expression modulation; PINK1 immunofluorescence, high-content cytometry, 24 h; Potency, µM (series often up to 76.6 µM), inactives show at the highest dose activation (PINK1 increase), most hits filed as activators; 410,000 tested, 0.2% active; AID 624263; active = well fitted activation curve with a large enough effect; inconclusive = small, poorly fitted or top-dose-only effect; inactive = flat fitted curve, though single readings scatter; cell line not stated here;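 note: potency is the fitted concentration of half-maximal effect; % of control where 0% means no effect; nearly all actives have a fitted effect of over 65% in size; a mitochondrial uncoupler was the plate control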
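PINK1 protein level read as immunofluorescence by microplate cytometer in a fixed, stained stable cell line after 24 h exposure to five compound concentrations, with CCCP as control.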
ClpP mod = qHTS Assay for Activators of ClpP. ATP-dependent Clp protease proteolytic subunit (Bacillus subtilis (strain 168)), P80244. purified B. subtilis ClpP, FRET peptide cleavage, 20 min. Potency, µM (titrated, usually from 57.5 µM), for the others: top-dose activity change, negative = active. 340,000 tested, 1.9% active; active = well fitted falling curve with a large enough effect; inconclusive = small, poorly fitted or top-dose-only effect; inactive = no such curve, though single readings can be large or run the other way; note: potency is the fitted concentration of half-maximal effect; the source files actives as falling curves though it sought activators and does not explain the sign; nearly all actives have a fitted effect of over 65% in size; many hits overshoot -100%
Target sequence (P80244 whole entry, looked up): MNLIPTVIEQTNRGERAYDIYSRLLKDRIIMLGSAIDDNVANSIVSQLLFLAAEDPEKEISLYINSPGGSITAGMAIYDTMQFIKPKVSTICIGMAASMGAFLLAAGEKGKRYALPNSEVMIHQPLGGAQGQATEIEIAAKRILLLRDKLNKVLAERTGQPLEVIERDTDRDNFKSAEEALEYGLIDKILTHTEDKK
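Purified B. subtilis ClpP, 10 microg/mL final in Tris/HCl pH8 with KCl, BSA, glycerol and Tween-20, cleaved an Abz/nitrotyrosine-quenched decapeptide. Fluorescence (ex 320, em 430) was read at 0 and 20 min at room temperature. Delta was normalized to 5.8 microM ADEP and DMSO/no-enzyme controls.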
Menin-MLL FL inh = displaces fluorescein MLL peptide from human menin; Fluorescence polarization, fluorescein-MLL peptide displacement from menin; FP activity change, % at 61.4 µM; 290,000 tested, under 10 active; inconclusive = falling polarisation curve, or a change in total fluorescence; inactive = total fluorescence flat and polarisation flat or rising; no compound was filed as active; the % refers to the polarisation; negative = inhibition;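 note: % of control where 0% means no effect; inhibitors lower the polarisation; unlabelled MLL peptide was the positive control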
TRPML1 ag = agonists of human TRPML1 channel; 410,000 tested, 0.12% active; AID 624414; activation, % (no concentration beside the values); Q9GZU1; TRPML1-expressing cells, Ca2+ dye fluorescence, FDSS; host cell line not named in the record; reference of the full effect not given here; in the data active = activation above about 50%; inconclusive = about 30% to 50%; inactive = below about 30%; note: 0% is about no effect; the text of the record puts the active cut at 80%
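Kinetic FDSS Ca2+ read in Tet-induced TRPML1-DL cells (ABD Ca8 dye plus quencher, 45-90 min RT loading): baseline, then compound, then 110 s agonist window; EC80 agonist 54-4 at 4uM final added afterwards for a 110 s antagonist window.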
TRPV1 PAM = human TRPV1 potentiation; Q8NER1; TRPV1-expressing cells, Fluo-8 calcium influx, capsaicin EC20 potentiation; host cell line not named in the record; control for the full effect not named in the record; potentiation, % at 8.33 µM; 320,000 tested, 0.02% active; active means potentiation above 80%; inconclusive means 30% to 80%; inactive means below 30%; note: 0% is about no effect
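TRPV1-expressing cells were cultured overnight at 35.5C and loaded with Fluo-8 calcium dye for 40 to 90 min at room temperature. After a 10 s baseline, compound was added and calcium influx was read kinetically for 3 min (ex 480/em 520 nm).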
Sfp PPTase inh = blocks B. subtilis Sfp PPTase activity. Q9F4F7. Biochemical Sfp PPTase activity, qHTS. Potency, µM, for inactives: max response, negative = inhibition, actives largely listed as inhibitors. 310,000 tested, 3.5% active. AID 1490; active = well fitted inhibition curve with a large enough effect; inconclusive = small, poorly fitted or top-dose-only effect, or another doubt; inactive = no such curve, though single readings can be large or run the other way;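 note: the enzyme is Sfp with the accession as filed and its product quenches rhodamine fluorescence; potency is the fitted concentration of half-maximal effect; 0% = enzyme reaction without inhibitor and -100% = no enzyme wells; top concentration of the series not given in the record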
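After 15 min at room temperature with compound, 15 nM Sfp received 5 uM rhodamine-CoA plus 12.5 uM BHQ-2-ybbR (50 mM Hepes pH 7.6, 10 mM MgCl2). Rate came from the fluorescence difference over 30 min, ex 525/em 598 nm.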
Active calls of the source: *; [ ] = remark or other dose.

How did COc1ccccc1C(=O)NC(=O)COC(=O)CCOc1ccccc1C do in these assays?
TRPML1 blocker: 2.1; PINK1 expr mod: -4.4%; ClpP mod: -4.0%; TRPML1 ag: 1.9; TRPV1 PAM: 8.5

What do the screens show for `Cc1noc(C)c1S(=O)(=O)Nc1ccccc1OC(F)(F)F`?
TRPML1 blocker: 24.4; PINK1 expr mod: 0.9%; ClpP mod: -0.9%; Menin-MLL FL inh: -5.7; TRPML1 ag: 1.2; TRPV1 PAM: -10.8; Sfp PPTase inh: 0.3%

Results for CCCCn1c(N)c(N(CCC(C)C)C(=O)COC(=O)c2cccnc2OCC)c(=O)[nH]c1=O ?
TRPML1 blocker: -9.5; PINK1 expr mod: 1.8%; ClpP mod: -1.1%; TRPML1 ag: 0.6; TRPV1 PAM: -3.9

What do the screens show for `COc1cc(/C=N/S(=O)(=O)CCc2ccccc2)ccc1O`?
TRPML1 blocker: 5.0; PINK1 expr mod: -2.0%; ClpP mod: 30.8%; Menin-MLL FL inh: 4.5; TRPML1 ag: 0.4; TRPV1 PAM: -1.3; Sfp PPTase inh: 27.4%

How did O=C(N[C@@H](Cc1ccccc1)C(=O)NC1CCCCCC1)c1ccco1 do in these assays?
TRPML1 blocker: 5.8; PINK1 expr mod: 3.4%[38.3 µM]; ClpP mod: 0.1%; Menin-MLL FL inh: 7.2; TRPML1 ag: -0.2; TRPV1 PAM: 11.7; Sfp PPTase inh: -3.8%

What do the screens show for `CCN(CC)S(=O)(=O)c1ccc(C(=O)N2CCc3ccccc32)cc1`?
TRPML1 blocker: 15.3; PINK1 expr mod: -1.2%; Menin-MLL FL inh: -0.4; TRPML1 ag: -0.2; TRPV1 PAM: -3.9; Sfp PPTase inh: 14.8%

What do the screens show for `COc1ccc(NC(=O)c2oc3ccccc3c2NC(=O)c2cc(OC)c(OC)c(OC)c2)cc1`?
TRPML1 blocker: -4.3; PINK1 expr mod: 2.0%; ClpP mod: inconclusive; TRPML1 ag: -0.9

How did CC1CC(C)CN(C(=O)c2nn(C)c3c2CSc2ccccc2-3)C1 (stereo not drawn) do in these assays?
TRPML1 blocker: -9.8; PINK1 expr mod: 0.1%; ClpP mod: 0.0%; Menin-MLL FL inh: -0.3; TRPML1 ag: -0.4; TRPV1 PAM: -26.2; Sfp PPTase inh: -8.0%

Results for O=C(CSc1nnc(-c2ccccn2)o1)Nc1ccc(F)cc1 ?
TRPML1 blocker: 21.1; PINK1 expr mod: 0.0%; ClpP mod: 0.6%; TRPML1 ag: 0.1; TRPV1 PAM: -12.4; Sfp PPTase inh: -2.8%

How did CC1CCN(c2ccc3nnc(CCC(=O)NC(C)C)n3n2)CC1 do in these assays?
TRPML1 blocker: -8.7; PINK1 expr mod: 3.1%; ClpP mod: -0.4%; Menin-MLL FL inh: -2.7; TRPML1 ag: -0.7; TRPV1 PAM: -10.7; Sfp PPTase inh: -0.2%

How did O=C(NNC1=NCCN1Cc1ccccc1)c1cccc(C(F)(F)F)c1 do in these assays?
TRPML1 blocker: -5.9; PINK1 expr mod: 1.4%; ClpP mod: -2.0%; Menin-MLL FL inh: 2.6; TRPML1 ag: -0.1; TRPV1 PAM: 7.7; Sfp PPTase inh: 21.1%

Results for c1ccc(CCn2cccc2)nc1 ?
TRPML1 blocker: -4.1; PINK1 expr mod: -0.8%; ClpP mod: -1.4%; TRPML1 ag: -0.2

How did CCC(C)c1ccc(NC(=O)C/C(C)=N/NC(=O)c2cnccn2)cc1 (stereo not drawn) do in these assays?
TRPML1 blocker: -6.4; PINK1 expr mod: 4.9%; ClpP mod: 0.7%; TRPML1 ag: 0.5; TRPV1 PAM: -37.1; Sfp PPTase inh: 4.7%

Results for CCc1cc(=O)oc2c(C)c(O)c(CN(C)C)cc12 ?
TRPML1 blocker: -13.5; PINK1 expr mod: -1.0%; ClpP mod: 28.6%; Menin-MLL FL inh: 1.0; TRPML1 ag: 0.8; TRPV1 PAM: -7.0; Sfp PPTase inh: 8.8%

What do the screens show for `COc1cccc(CN2C(=O)CN(C3CCCCC3)C(=O)C2c2ccc(OC)c(OC)c2)c1` (stereo not drawn)?
TRPML1 blocker: -6.9; PINK1 expr mod: 3.9%; ClpP mod: -1.9%; TRPML1 ag: 0.8

What do the screens show for `Cn1nccc1C(=O)Nc1cccc(C(F)(F)F)c1`?
TRPML1 blocker: 2.2; PINK1 expr mod: 0.8%; Menin-MLL FL inh: -0.8; TRPML1 ag: 0.4; TRPV1 PAM: -4.5; Sfp PPTase inh: 7.1%

Results for Cc1ccc(N(CC(=O)N2CCN(C3CCCCC3)CC2)S(=O)(=O)c2cccnc2)cc1 ?
TRPML1 blocker: 8.7; PINK1 expr mod: -0.7%[38.3 µM]; ClpP mod: -0.3%; Menin-MLL FL inh: -0.4; TRPML1 ag: 0.9; TRPV1 PAM: -2.0; Sfp PPTase inh: 12.4%

How did Cc1nc(N)nc(C)c1Cc1ccccc1 do in these assays?
TRPML1 blocker: 8.1; PINK1 expr mod: -1.8%; ClpP mod: -26.4%; Menin-MLL FL inh: 2.7; TRPML1 ag: 1.0; TRPV1 PAM: 1.4; Sfp PPTase inh: 10.2%

How did COc1ccc(CNC(=O)c2c3c(nc4ccccc24)C(=O)N(C2CCCCC2)C3)cc1 do in these assays?
TRPML1 blocker: -9.6; PINK1 expr mod: 1.0%; ClpP mod: -2.9%; TRPML1 ag: 1.4

Results for CCS(=O)(=O)N1CCC(c2nc3ccccc3[nH]2)CC1 ?
TRPML1 blocker: 5.9; PINK1 expr mod: -0.3%; ClpP mod: -0.9%; Menin-MLL FL inh: -2.4; TRPML1 ag: -0.5; TRPV1 PAM: -5.3; Sfp PPTase inh: 8.3%

Results for CCN(CC)C(=O)C1CCCN(Cc2ccccc2F)C1 (stereo not drawn) ?
TRPML1 blocker: -2.7; PINK1 expr mod: -1.5%; ClpP mod: -0.3%; Menin-MLL FL inh: -0.9; TRPML1 ag: -0.9; TRPV1 PAM: -14.6; Sfp PPTase inh: -19.1%

Results for CC(C)CCNC(=O)C1CCN(S(=O)(=O)c2ccc(-n3cnnn3)cc2)CC1 ?
TRPML1 blocker: -1.6; PINK1 expr mod: 2.3%; ClpP mod: 31.6µM*; Menin-MLL FL inh: -0.9; TRPML1 ag: -0.1; TRPV1 PAM: 2.0; Sfp PPTase inh: -14.1%

Results for Oc1ccccc1C1Nc2cccc3cccc(c23)N1 ?
TRPML1 blocker: 5.9; PINK1 expr mod: 0.9%; ClpP mod: -6.2%; Menin-MLL FL inh: 0.0; TRPML1 ag: -0.8; TRPV1 PAM: 21.6; Sfp PPTase inh: 22.4µM*

Results for O=C(Nc1nc2nc(-c3ccccc3)cc(=O)n2[nH]1)c1ccc(Cl)cc1 ?
TRPML1 blocker: -26.6; PINK1 expr mod: -1.4%; ClpP mod: inconclusive; TRPML1 ag: 2.3; TRPV1 PAM: 3.1

What do the screens show for `O=C(CNC(=O)c1ccccc1)NCc1ccc(Cl)cc1`?
TRPML1 blocker: 12.3; PINK1 expr mod: -0.5%; Menin-MLL FL inh: 0.3; TRPML1 ag: 0.3; TRPV1 PAM: 7.9; Sfp PPTase inh: 15.8%

What do the screens show for `Cc1cc(C)n2nc(SCc3nnc(SCc4ccccc4)s3)nc2n1`?
TRPML1 blocker: -7.0; PINK1 expr mod: 5.2%[38.3 µM]; ClpP mod: -0.4%; Menin-MLL FL inh: 1.2; TRPML1 ag: -0.8; TRPV1 PAM: 1.9; Sfp PPTase inh: -0.6%

Results for CC(=O)NCCNc1nc2cc(-c3cnn(CCC(C)C)c3)sc2c(=O)n1C ?
TRPML1 blocker: 4.9; PINK1 expr mod: -0.5%; ClpP mod: -20.6%; TRPML1 ag: 2.3

What do the screens show for `CCC(C)NC(=O)CSC1=Nc2ccccc2C2=NC(c3ccccc3)C(=O)N12` (stereo not drawn)?
TRPML1 blocker: -2.5; PINK1 expr mod: 2.4%; ClpP mod: 15.8µM*; Menin-MLL FL inh: 3.1; TRPML1 ag: -0.2; TRPV1 PAM: 2.7; Sfp PPTase inh: 9.5%

Results for O=C(Nc1ccc2c(c1)C(=O)N(CC1CCCO1)C2=O)c1ccc(Cl)c(Cl)c1 (stereo not drawn) ?
TRPML1 blocker: -0.8; PINK1 expr mod: 1.3%[38.3 µM]; ClpP mod: inconclusive; Menin-MLL FL inh: 2.8; TRPML1 ag: -0.7; TRPV1 PAM: -23.5; Sfp PPTase inh: 3.9%

What do the screens show for `N#Cc1nc(-c2ccccc2F)oc1N1CCCCC1`?
PINK1 expr mod: -0.7%; ClpP mod: 4.4%; Menin-MLL FL inh: -4.1; TRPV1 PAM: 13.2; Sfp PPTase inh: 1.3%

How did OCCC1CN(Cc2cnc(-c3ccccc3)s2)CCN1Cc1ccccc1 (stereo not drawn) do in these assays?
TRPML1 blocker: 6.5; PINK1 expr mod: -1.7%; Menin-MLL FL inh: 1.3; TRPML1 ag: 0.1; TRPV1 PAM: -8.2; Sfp PPTase inh: -8.3%

Results for CN(C)CCNc1nc2sc3c(c2c(=O)n1-c1ccc(F)cc1)CCCCC3 ?
TRPML1 blocker: -5.5; PINK1 expr mod: 4.1%; ClpP mod: -0.6%; Menin-MLL FL inh: 2.4; TRPML1 ag: -0.2; TRPV1 PAM: 28.4; Sfp PPTase inh: -9.1%

Results for CC1CCCN(c2nc3ccccc3nc2C(C#N)C(=O)OC2CCCCC2)C1 (stereo not drawn) ?
Menin-MLL FL inh: inconclusive; TRPV1 PAM: -0.4; Sfp PPTase inh: 7.8%

Results for CCOC(=O)COn1c(=O)c(-c2ccc(Br)cc2)[n+]([O-])c2ccccc21 ?
TRPML1 blocker: -12.7; PINK1 expr mod: 9.0%; ClpP mod: 0.4%; Menin-MLL FL inh: 1.1; TRPML1 ag: -1.7; TRPV1 PAM: -4.0; Sfp PPTase inh: 4.1%

What do the screens show for `O=c1c(S(=O)(=O)c2cccc(Cl)c2)cn(Cc2ccccc2)c2cc(N3CCOCC3)c(F)cc12`?
TRPML1 blocker: -22.2; PINK1 expr mod: 9.8%; ClpP mod: -7.8%; TRPML1 ag: 0.0

Results for CCOC(=O)c1cc(-c2ccccc2)n(CC(=O)Nc2cc(Cl)c(OC)cc2OC)c1C ?
TRPML1 blocker: inconclusive; PINK1 expr mod: -0.2%; ClpP mod: 1.3%; TRPML1 ag: 1.5

What do the screens show for `Cc1cccc(-c2noc(CNC(=O)COc3ccccc3C)n2)c1`?
TRPML1 blocker: 16.0; PINK1 expr mod: 1.7%; ClpP mod: -2.4%; TRPML1 ag: -0.4; TRPV1 PAM: -0.3; Sfp PPTase inh: -8.5%

Screening data deposited in PubChem by National Center for Advancing Translational Sciences (NCATS).
